Bioassay records as filed in PubChem.
CtBP-E1A inh = blocks the CtBP interaction with E1A; AlphaScreen GST-E1A/His-CtBP binding, 1536-well; active compounds read low; control for the full effect not named in the record; activity change, % (no concentration beside the values); actives 0.49% (n = 340,000); AID 651724; in the data active means activity change below about -65%; inconclusive means about -30% to -65%; inactive means above about -30%; further: on the % scale 0 is the no-effect control and ±100 the full control effect
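Homogeneous bead-based format: GST-tagged E1A captured on glutathione donor beads, His-tagged CtBP on nickel acceptor beads; compounds precede bead addition by 2 h at 37 °C.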
TRPV1 PAM = human TRPV1 potentiation; Q8NER1; TRPV1-expressing cells, Fluo-8 calcium influx, capsaicin EC20 potentiation; host cell line not named in the record; control for the full effect not named in the record; potentiation, % at 8.33 µM; actives 0.02% (n = 320,000); AID 540277; active means potentiation above 80%; inconclusive means 30% to 80%; inactive means below 30%; further: 0% is about no effect
Target sequence (Q8NER1 whole entry, looked up): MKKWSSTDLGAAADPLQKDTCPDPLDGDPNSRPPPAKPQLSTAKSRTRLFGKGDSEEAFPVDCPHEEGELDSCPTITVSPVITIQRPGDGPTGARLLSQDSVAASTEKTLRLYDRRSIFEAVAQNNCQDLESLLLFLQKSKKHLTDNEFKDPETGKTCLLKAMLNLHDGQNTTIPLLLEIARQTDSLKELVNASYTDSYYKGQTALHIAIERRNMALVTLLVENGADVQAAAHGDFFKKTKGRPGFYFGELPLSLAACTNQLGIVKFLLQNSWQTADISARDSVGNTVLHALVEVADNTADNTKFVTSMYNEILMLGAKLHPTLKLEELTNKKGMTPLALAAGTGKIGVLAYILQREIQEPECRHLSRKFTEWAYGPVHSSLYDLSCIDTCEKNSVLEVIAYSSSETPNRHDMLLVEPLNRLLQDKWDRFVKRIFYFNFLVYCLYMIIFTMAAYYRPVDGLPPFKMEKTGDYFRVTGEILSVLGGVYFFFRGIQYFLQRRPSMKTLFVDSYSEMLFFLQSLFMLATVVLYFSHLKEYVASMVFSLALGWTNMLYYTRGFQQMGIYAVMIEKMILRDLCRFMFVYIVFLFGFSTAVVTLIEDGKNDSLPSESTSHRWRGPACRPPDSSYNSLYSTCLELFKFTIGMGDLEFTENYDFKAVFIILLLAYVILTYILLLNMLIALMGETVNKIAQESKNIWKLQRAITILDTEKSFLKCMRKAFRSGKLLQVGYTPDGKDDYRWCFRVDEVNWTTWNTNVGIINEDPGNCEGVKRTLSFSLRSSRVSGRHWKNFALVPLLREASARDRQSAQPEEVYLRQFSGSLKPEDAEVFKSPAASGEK
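Cells expressing TRPV1 were dye-loaded with Fluo-8 and read kinetically: 10 s baseline, 3 min after compound (agonist portion), then 2 min after EC20 capsaicin (allosteric enhancer portion). Calcium-bound dye fluorescence at 480/520 nm.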
gsp antag = gsp mutant antagonism; gsp-mutant cells, cAMP HTRF, 30 min; control for the full effect not named in the record; Potency, µM (highest dose often 76.9 µM), without a hit: at the top dose activity change, negative = inhibition, hits mostly inhibitors; actives 0.4% (n = 340,000); active = falling curve of any shape with a large fitted effect; inconclusive = falling curve, mostly with a smaller effect; inactive = flat or rising curve; cell line not stated here;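 further: intracellular cAMP measured with PDE inhibitor Ro 20-1724 present during compound exposure; potency means the concentration at half of the fitted maximal effect; on the % scale 0 is the no-effect control and ±100 the full control effect; nearly all actives have a fitted effect of over 65% in size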
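G418-selected cells were plated in DMEM/10% FBS for 16-24 h at 37C, then treated with compounds plus the PDE inhibitor […] (300 uM solution added) for 30 min at 37C. Intracellular cAMP was measured by HTRF after 30 min lysis at room temperature.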
ClpP mod = qHTS Assay for Activators of ClpP | purified B. subtilis ClpP, FRET peptide cleavage, 20 min | Potency, µM (top dose mostly 57.5 µM), without a hit: at the highest dose activity change, negative = active | actives 1.9% (n = 340,000); active = well fitted falling curve with a large enough effect; inconclusive = small, poorly fitted or top-dose-only effect; inactive = no such curve, though single readings can be large or run the other way; further: potency means the concentration at half of the fitted maximal effect; the source files actives as falling curves though it sought activators and does not explain the sign; nearly all actives have a fitted effect of over 65% in size; many hits overshoot -100%
Target sequence (P80244 whole entry, looked up): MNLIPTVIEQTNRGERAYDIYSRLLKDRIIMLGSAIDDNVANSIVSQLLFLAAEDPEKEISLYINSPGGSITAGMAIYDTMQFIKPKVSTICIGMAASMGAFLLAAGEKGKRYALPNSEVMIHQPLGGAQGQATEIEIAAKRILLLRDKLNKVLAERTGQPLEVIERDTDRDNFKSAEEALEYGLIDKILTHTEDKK
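ClpP 10 microg/mL final, pH 8 Tris/KCl buffer with BSA, glycerol, Tween-20; compound pinned in; FRET-FV substrate; RT 20 min; Ex320/Em430; ΔFRET vs ADEP 5.8 microM, DMSO, no enzyme.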
Menin MLL FP FL = inhibitors of human menin-MLL interaction, wild-type MLL peptide; 290,000 tested, under 10 active; FP activity change, % at 61.4 µM; AID 1766; Fluorescence polarization, fluorescein-MLL peptide displacement from menin; inconclusive = falling polarisation curve, or a change in total fluorescence; inactive = total fluorescence flat and polarisation flat or rising; no compound was filed as active; the % refers to the polarisation; negative = inhibition;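 further: % of control where 0% means no effect; inhibitors lower the polarisation; unlabelled MLL peptide was the positive control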
Sfp inh = blocks B. subtilis Sfp PPTase activity; Q9F4F7; Biochemical Sfp PPTase activity, qHTS; Potency, µM, without a hit: max response, negative = inhibition, hits mostly inhibitors; actives 3.5% (n = 310,000); AID 1490; active means well fitted inhibition curve with a large enough effect; inconclusive means small, poorly fitted or top-dose-only effect, or another doubt; inactive means no such curve, though single readings can be large or run the other way;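 further: the enzyme is Sfp with the accession as filed and its product quenches rhodamine fluorescence; potency means the concentration at half of the fitted maximal effect; 0% = enzyme reaction without inhibitor and -100% = no enzyme wells; top concentration of the series not given in the record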
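With Hepes-Na pH 7.6 buffer containing 10 mM MgCl2, Sfp (15 nM) modified BHQ-2-YbbR (12.5 uM) using rhodamine-CoA (5 uM). Two reads 30 minutes apart at 525/598 nm yielded each well's rate.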
gsp agonist = activates gsp, the McCune-Albright syndrome mutation; gsp mutant cells, cAMP HTRF, 30 min; control for the full effect not named in the record; AID 624287; actives 0.13% (n = 340,000); Potency, µM (doses to about 76.9 µM), inactives show at the highest dose activation (cAMP increase), usual class: activators; active = well fitted activation curve with a large enough effect; inconclusive = small, poorly fitted or top-dose-only effect, or another doubt; inactive = no such curve, though single readings can be large or run the other way; cell line not stated here;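 further: phosphodiesterase inhibitor Ro 20-1724 added with compounds to block cAMP breakdown; potency means the concentration at half of the fitted maximal effect; nearly all actives have a fitted effect of over 60% in size; about a fifth of the inactives were tested at one dose only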
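Cells in DMEM/10% FBS with G418 were pretreated with compounds in DMSO plus […] (300 uM stock) for 30 min at 37C. cAMP was measured by HTRF (cAMP-d2 plus anti-cAMP antibody-K) after 30 min at room temperature.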
* hit, by the source's call; u = inconclusive; x = not tested or not shown; & = joins results of further samples; [ ] = dose if it differs, or a comment.

SMILES | CtBP-E1A inh | TRPV1 PAM | gsp antag | ClpP mod | Menin MLL FP FL | Sfp inh | gsp agonist
Cc1cc(NS(=O)(=O)c2ccc(NC(=O)C(C)Oc3ccccc3Cl)cc2)no1 (stereo not given) | -3 | 10 | -7% | -3.6% | x | x | 0%
O=C(NC(=S)Nc1ccccc1O)c1ccccc1Cl | 6 | 0 | -9% | x | 0.1 | -1% | -5%[15.4 µM]
O=C(COC(=O)c1ccccc1SCC(=O)N1CCCC1)NCc1ccc(F)cc1 | -4 | x | x | -6.4% | x | x | -72%[inhibitor]
CNC(=O)c1c(NC(=O)CCS(=O)(=O)c2ccc(C)cc2)sc2c1CCN(C(=O)OC)C2 | 7 | -4 | 0% | -6.4% | x | x | 23%
O=C(c1ccc(F)cc1Cl)N(Cc1ccco1)C1CCS(=O)(=O)C1 (stereo not given) | 4 | -15 | 7% | 4.1% | x | x | -31%
COc1ccc(/C=N/NC(=O)Nc2ccc3nsnc3c2)c(OC)c1 | -9 | -3 | -3% | -2.9% | -0.4 | -5% | 4%
COc1ccc(/C=C/C(=O)Nc2ccc(S(=O)(=O)N3CCOCC3)cc2)c(OC)c1 | x | -1 | -18% | 4.7% | x | x | -15%
Fc1ccccc1CNC(=S)Nc1cccc(C(F)(F)F)c1 | 1 | 17 | -14% | -1.3% | 2.8 | 21% | -3%[15.4 µM]
Cc1cccc(C(=O)NCCc2ccccc2)c1 | -15 | -15 | 18% | -1.4% | 5.0 | 10% | -8%[15.4 µM]
CC(OC(=O)CN1C(=O)C2C3C=CC(C4CC34)C2C1=O)C(=O)c1ccccc1 (stereo not given) | -4 | 4 | -3% | x | 0.4 | 15% | 20%

Quoted from the listing.
For Sfp inh, O=C(NC(=S)Nc1ccccc1O)c1ccccc1Cl shows -1%
For ClpP mod, O=C(COC(=O)c1ccccc1SCC(=O)N1CCCC1)NCc1ccc(F)cc1 shows -6.4%

(more compounds)
SMILES | CtBP-E1A inh | TRPV1 PAM | gsp antag | ClpP mod | Menin MLL FP FL | Sfp inh | gsp agonist
O=C(O)CCCN(Cc1cccc(Br)c1)S(=O)(=O)c1ccc(Br)cc1 | -1 | 12 | -26% | 2.4% | 2.4 | 79µM* | -1%
O=C(NCCc1ccccc1)C(=O)NCc1ccncc1 | x | 20 | -11% | 1.0% | -8.7 | 11% | -38%[inhibitor]
CC1(C)Cc2ccccc2-c2nc(NCCCO)n(-c3ccccc3)c(=O)c21 | -3 | -18 | 7% | u | 6.4 | 1% | 23%
OC1(C#CCN2CCCC2)c2ccccc2-c2ccccc21 | 8 | x | -3% | u | 0.5 | -18% | 16%[15.4 µM]
CCn1cc(CN2CCCC(CO)(Cc3cccc(Cl)c3)C2)cn1 (stereo not given) | 2 | 8 | 10% | x | -8.9 | -4% | 13%[15.4 µM]
COc1ccc(C2/C=C\CN(C(=O)C3CCCC3)CC(=O)N2Cc2ccc(F)cc2)cc1 (stereo not given) | -22 | u | -5% | -4.1% | 0.4&1.6 | 5%&-2% | x
CCOC(=O)c1cnc(SC)nc1Oc1cccc(NS(=O)(=O)c2ccccc2)c1 | 6 | -7 | 6% | -2.4% | -0.6 | 14% | -29%
CCn1cc(C(=O)N2CCN(c3cccc(Cl)c3)CC2)c2cc(OC)c(OC)cc2c1=O | 4 | -2 | 5% | -3.3%&-4.6% | -1.7 | 4% | 3%
CC(C)CC1c2[nH]c3ccccc3c2CCN1C(=O)C1CCOCC1 (stereo not given) | 6 | 2 | -7% | x | -9.9 | 14% | 8%[15.4 µM]
Cc1cc(C)c(S(=O)(=O)N(CC(=O)NCc2cccnc2)C2CCCCC2)c(C)c1 | -15 | u | 3% | 1.8% | -3.5 | -12% | -32%
CCOC(=O)c1cn(-c2c(Cl)cccc2Cl)c2cc(Cl)c([N+](=O)[O-])cc2c1=O | x | -3 | u | -4.0% | 1.9 | -10% | -61%[inhibitor]
CS(=O)(=O)N(CC(=O)N1CCC(C(N)=O)CC1)Cc1ccc(Cl)c(Cl)c1 | x | -8 | 5% | 1.0% | -3.2 | 12% | 14%
O=C(NCc1ccccc1)C1CCCN(C(=O)NCc2ccccc2)C1 (stereo not given) | 4 | -5 | -1% | x | -8.9 | 2% | -7%
O=C(O)c1cccnc1Sc1ccc(Cl)cc1 | 7 | 8 | x | x | -0.1 | 6% | -10%[15.4 µM]
CCOc1ccc(-c2cc(C(=O)N/N=C/c3cccnc3)c3ccccc3n2)cc1 | 6 | 23 | 4% | u | x | 8% | -4%[15.4 µM]
COc1cc(C)c(S(=O)(=O)N2CCCC2)cc1C | -2 | 7 | 2% | 0.8% | -1.5 | 13% | -39%[inhibitor]
COC(=O)c1cc(CC(=O)c2ccc(O)cc2O)c(C)o1 | 1 | 4 | -16% | -1.1% | 0.0 | 10% | -22%
Cc1sc2nc(SCC(=O)N3CC(C)OC(C)C3)n(C)c(=O)c2c1C (stereo not given) | 1 | 2 | -4% | 0.8% | x | 6% | u
O=S(=O)(c1ccc(Cl)cc1)N1CCN(c2ccccn2)CC1 | 4 | -38 | -3% | -16% | 4.5 | -6% | 19%[15.4 µM]
CCCOc1ccc(-c2cnc(N)s2)cc1 | -3 | 11 | 0% | 0.7% | 2.3 | u | -4%
O=C(O)CCc1ccc(-c2ccc(F)cc2)n1CC(=O)O | 2 | -1 | 9% | -29% | 1.1 | u | 2%
O=C1NCCN(Cc2ccoc2)C1CC(=O)N(Cc1ccccc1)CC1CCC1 (stereo not given) | 3 | 2 | 0% | x | 1.4 | 1% | -12%[15.4 µM]
C=CCn1cn[nH]c1=S | -1 | -4 | 18% | 0.7% | 2.0 | u | -4%[15.4 µM]
O=C(CN1C(=O)c2ccc([N+](=O)[O-])cc2C1=O)NCc1ccco1 | 3 | 11 | -12% | -0.6% | -4.5 | 7% | 3%[15.4 µM]
CCOC(=O)c1sc2nc(CSc3ccccc3)[nH]c(=O)c2c1C | 6 | -14 | 19% | -0.3% | 12 | 2% | 9%[15.4 µM]
COc1ccccc1-c1cc(C(F)(F)F)nc(S(=O)(=O)CCCC(=O)N2CCOCC2)n1 | 2 | -11 | 9% | 0.3% | 0.1 | 0% | -45%[inhibitor]
O=C(CN1CCN(c2ccccc2F)CC1)NC(=O)NCc1ccccc1 | x | -5 | 2% | -2.8% | -2.9 | -3% | -2%
COc1cccc(C(=O)Oc2ccccc2/C=C\C(=O)c2cc3ccccc3o2)c1 | -15 | -7 | -4% | -2.0% | 1.0 | u | -30%[inhibitor]
CSc1ccc(CN(C)CC(=O)NCc2ccccc2)cc1 | -20 | -12 | -1% | x | -0.5 | 8% | -24%[15.4 µM]
CC(C)(C)c1nc(SCC(=O)NCc2cccs2)c2ccccc2n1 | x | 1 | 3% | 1.0% | 0.3 | 13% | -54%[inhibitor]

Given field by field: part of the list above
> O=C(CN1CCN(c2ccccc2F)CC1)NC(=O)NCc1ccccc1
  CtBP-E1A inh: x; TRPV1 PAM: -5; gsp antag: 2%; ClpP mod: -2.8%; Menin MLL FP FL: -2.9; Sfp inh: -3%; gsp agonist: -2%
> COc1cccc(C(=O)Oc2ccccc2/C=C\C(=O)c2cc3ccccc3o2)c1
  CtBP-E1A inh: -15; TRPV1 PAM: -7; gsp antag: -4%; ClpP mod: -2.0%; Menin MLL FP FL: 1.0; Sfp inh: u; gsp agonist: -30%[inhibitor]
> CSc1ccc(CN(C)CC(=O)NCc2ccccc2)cc1
  CtBP-E1A inh: -20; TRPV1 PAM: -12; gsp antag: -1%; ClpP mod: x; Menin MLL FP FL: -0.5; Sfp inh: 8%; gsp agonist: -24%[15.4 µM]

Carrying on:
SMILES | CtBP-E1A inh | TRPV1 PAM | gsp antag | ClpP mod | Menin MLL FP FL | Sfp inh | gsp agonist
CC1(C)CC(=O)C=C(Nc2cccc(C(F)(F)F)c2)C1 | 11 | x | -2% | 1.5% | x | x | -15%
O=C(NCc1cccs1)c1ccccc1F | 5 | 1 | -1% | 1.7% | 1.3 | 14% | -28%
Cc1c(Cl)ccc(S(=O)(=O)N2CCN(C)CC2)c1Cl | -16 | x | x | -2.1% | x | x | -44%[inhibitor]
COC(C(=O)N/N=C(\C)c1ccc(C(C)(C)C)cc1)c1ccccc1 (stereo not given) | 1 | 10 | -16% | -0.4% | -1.8 | 2% | 0%[15.4 µM]
O=C(CSc1cc(Cl)ccc1Cl)NCCN1C(=O)CSC1=O | 2 | x | -4% | x | x | x | 10%
Cc1ccc(/C=N\NC(=O)c2cc(OCC(F)(F)F)ccc2OCC(F)(F)F)cc1 | 3 | x | 0% | -2.2% | -0.1 | 6% | -13%
Fc1ccc(CCNC(=S)Nc2ccc(F)cc2)cc1 | 5 | -4 | 9% | -1.4% | 2.3 | 14% | -13%
COc1ccc(NC(=O)c2ccccc2)cc1 | -2 | -7 | 8% | -0.8% | x | x | x
Cn1[nH]c(-c2ccccc2)c(/C=N/O)c1=O | 2 | 26 | -4% | x | -0.3 | -6% | 9%[15.4 µM]
CCN(CC)CCn1c(=S)[nH]c2cc(C(=O)NCc3ccccc3)ccc2c1=O | 1 | x | x | 1.8% | x | x | -65%[inhibitor]
CC(=O)c1ccc(N2CCN(C(=O)/C=C/c3cccs3)CC2)cc1 | -2 | -16 | -7% | x | 0.1 | 3% | -7%
COc1ccc(CNS(=O)(=O)c2ccc(C3CNC(=O)C3)cc2)cc1 (stereo not given) | 16 | -6 | -2% | 1.4% | -3.1 | 5% | 8%
C[C@H]1CN(C2CCCCC2)C(=O)[C@@H]1CC(=O)Nc1ccc(Br)cc1 | 5 | x | x | 0.0% | x | x | u
NC(=O)CSc1nnnn1-c1ccc(OC(F)(F)F)cc1 | -1 | -7 | 3% | 0.3% | 0.6 | 3% | 28%
COc1nc(N)nc(N2CCOCC2)n1 | 5 | 2 | 12% | 3.0% | -1.9 | 27% | -24%
O=C(c1ccc(F)cc1)c1cc2ccc(O)cc2oc1=O | -10 | 10 | -3% | x | u | 6% | -6%
CCN(Cc1ccccc1)C(=O)CN1C(=O)NC2(CC(C)CC(C)(C)C2)C1=O (stereo not given) | 3 | 0 | 10% | -3.2% | x | 17% | -29%
CCOC(=O)Nc1ccc(C)cc1C | -2 | -5 | 1% | 0.0% | 0.3 | 16% | -2%
C#CCOc1ccc(/C=C2\SC(=S)N(Cc3cccnc3)C2=O)cc1 | -14 | 1 | -10% | 3.0% | 6.5 | -40% | -3%
